Assay outcomes deposited in PubChem BioAssay by Johns Hopkins Ion Channel Center.
KCNQ2 block: KCNQ2 potassium channel inhibitors, primary screen, cell-based, CHO-K1, FluxOR thallium flux, B-score (AID 2156); 20 min; stronger effect = lower value; only compounds with negative scores are shown here; some inactives read as strong as hits; B-score at 10 µM; 310,000 tested, 1.1% active;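 active means fluorescence ratio B-score at most minus 3 library SDs, with starting brightness B-score within 2 library SDs, cut at about -5.5 in these data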
Target sequence (O88943 whole entry, looked up): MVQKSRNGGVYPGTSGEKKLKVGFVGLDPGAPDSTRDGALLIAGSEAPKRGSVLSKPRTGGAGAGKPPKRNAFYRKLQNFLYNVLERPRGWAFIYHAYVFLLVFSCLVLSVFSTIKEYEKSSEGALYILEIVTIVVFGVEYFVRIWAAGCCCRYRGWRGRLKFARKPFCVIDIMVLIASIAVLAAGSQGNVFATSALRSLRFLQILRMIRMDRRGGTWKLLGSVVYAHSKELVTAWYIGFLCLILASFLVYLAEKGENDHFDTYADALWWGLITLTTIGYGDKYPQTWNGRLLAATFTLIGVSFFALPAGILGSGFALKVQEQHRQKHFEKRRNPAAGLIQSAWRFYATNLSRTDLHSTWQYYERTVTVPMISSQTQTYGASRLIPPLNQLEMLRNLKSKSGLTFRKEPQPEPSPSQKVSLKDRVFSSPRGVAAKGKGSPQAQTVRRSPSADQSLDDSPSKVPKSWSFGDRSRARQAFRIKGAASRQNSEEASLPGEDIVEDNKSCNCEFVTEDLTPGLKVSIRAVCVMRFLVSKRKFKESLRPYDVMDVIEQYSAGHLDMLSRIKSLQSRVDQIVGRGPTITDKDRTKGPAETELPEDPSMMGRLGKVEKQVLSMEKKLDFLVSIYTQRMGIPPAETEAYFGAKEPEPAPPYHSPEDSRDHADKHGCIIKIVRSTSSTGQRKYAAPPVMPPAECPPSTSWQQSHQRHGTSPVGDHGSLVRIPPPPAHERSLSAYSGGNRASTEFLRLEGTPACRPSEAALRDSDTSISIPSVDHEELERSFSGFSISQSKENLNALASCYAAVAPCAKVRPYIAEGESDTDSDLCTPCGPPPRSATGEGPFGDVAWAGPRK
KCNQ2 block baseline: recorded beside KCNQ2 block, whose call it bears; B-score; measured here: initial fluorescence intensity artifact check;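 brightness before thallium and not channel activity; 0 = typical well and far values either way flag optical interference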
* marks the source's active call; other numbers are inactive results; i = inactive. This is a subset; the hit share may differ from the screen's.

Sample of the layout:
SMILES	KCNQ2 block	KCNQ2 block baseline
C[n+]1ccccc1/C=C/c1cc(Br)ccc1O	i	-0.47
C(=N\N1CCN(Cc2ccccc2)CC1)/c1ccc(-c2ccccc2)cc1	i	-1.41
S=C(NCCc1ccccc1)N/N=C/c1cccs1	i	-0.05
Cc1cccc(C)c1OCC(=O)N/N=C/c1cccnc1	i	-0.04

The listing, from the start:
SMILES	KCNQ2 block	KCNQ2 block baseline
C[n+]1ccccc1/C=C/c1cc(Br)ccc1O	i	-0.47
C(=N\N1CCN(Cc2ccccc2)CC1)/c1ccc(-c2ccccc2)cc1	i	-1.41
S=C(NCCc1ccccc1)N/N=C/c1cccs1	i	-0.05
Cc1cccc(C)c1OCC(=O)N/N=C/c1cccnc1	i	-0.04
COc1cccc(NC(=O)C(=O)c2cn(CC(=O)N3CCCC3)c3ccccc23)c1	i	-1.16
COC(=O)C1C(=O)CC(C)(O)C(C(=O)OC)C1/C=C/c1ccccc1 (stereo unspecified)	i	-1.76
COc1cc(C(=O)Nc2ccccc2SCc2cc(=O)n3nc(C)sc3n2)cc(OC)c1OC	i	3.03
CC(C)Oc1ccc(OCCSc2nc3ccccc3n2CC(=O)O)cc1	i	-0.05
Cc1cc(C)n(C(=O)c2ccc(Cn3nc(C)c(Br)c3C)o2)n1	i	-0.45
COc1ccc2nc(C)cc(SCC(=O)NNC(=O)COc3ccccc3)c2c1	i	-0.39
CC1CCN(C2CCN(C(=O)c3ccccc3F)CC2)CC1	i	-0.06
CCCCN1C(=O)c2ccc(C(=O)NC3=NCCS3)cc2C1=O	i	0.52
c1ccc2[nH]c(-c3nc4ccccc4[nH]3)nc2c1	i	-0.07
Cc1cccc(NC(=S)NC(=O)CC2CC(C)(C)OC2=O)c1 (stereo unspecified)	i	0.08
COc1ccc(-c2csc(NC(=O)Cn3nc(C)cc3C)n2)cc1	i	-1.5
CCN(CC)S(=O)(=O)c1ccc(NC(=O)COc2c(OC)cccc2OC)cc1	i	0.09
COc1ccc(CN2CCN(C(C)C(=O)N(C)Cc3cccc(F)c3)CC2)cc1OC (stereo unspecified)	i	0.5
O=C(NCC(c1ccco1)N1CCN(c2ccccc2F)CC1)C(=O)NC1CC1 (stereo unspecified)	i	0.89
N#C/C(=C/c1ccc(N2CCOCC2)o1)c1ccc(Cl)cc1	i	3.12
Nc1ncc(-n2cncn2)c(-c2ccccc2)n1	i	0.19
CCOc1ccc(NC(=S)NCCCn2ccnc2)cc1	i	0.57
O=C(NCc1ccccc1Cl)c1cnc2ccccc2n1	i	-2.03
COC(=O)C1CCN(S(=O)(=O)CCNC(=O)c2cccc(OC)c2)CC1	i	-0.03
COc1ccc(NC(=O)c2cccc(-c3ccc(O)cc3)c2)cn1	i	4.68
O=C(Nc1cccc(NC(=O)C2CCCO2)c1)C1CCCO1 (stereo unspecified)	i	0.8
Cc1nn(C(C)C(=O)NC2C(=O)N3C(C(=O)O)=C(CSc4nnnn4C)CSC23)cc1Cl (stereo unspecified)	i	-0.58
CCCn1nc(NC(=O)c2ccco2)c2cc3ccc(C)cc3nc21	i	-1.06
COc1ccccc1NC(=O)CSc1nnc(Cc2cccn2C)n1CCc1ccccc1	i	0.37
CCCCn1c(N)c(N(CC(C)C)C(=O)CC2CCCC2)c(=O)[nH]c1=O	i	-0.39
Cc1ccccc1CNS(=O)(=O)c1ccc2c(c1)C(C)(C)C(=O)N2C	i	-0.39
CC(C)C(=O)Nc1nnc(Sc2ccc(N(C)C)cc2)s1	i	0.38
CCN(CC)S(=O)(=O)c1cccc(-c2n[nH]c(=S)n2/N=C/c2ccc(OC(F)F)cc2)c1	i	0.59
NC(=O)CSc1nnc(-c2ccccc2)c(-c2ccccc2)n1	i	-0.21
CCC(C)c1ccc(NC(=S)NC(C)C2CCCO2)cc1 (stereo unspecified)	i	0.03
Cc1[nH]nc2c1C(c1cc(Br)cs1)C(C#N)=C(N)O2 (stereo unspecified)	i	0.92
COc1cccc(CNc2cnc3ccccc3c2)c1O	i	-0.75
CC(C)(C)NC(=O)C(c1ccc(F)cc1)N(Cc1cccs1)C(=O)c1ccc(CN2CCOCC2)o1 (stereo unspecified)	i	-1.39
O=C(Nc1ccon1)c1sc2ccccc2c1Cl	i	-0.36
Cc1cccc2cc(COC(=O)C(C)(C)C)c(=O)[nH]c12	i	2.19
O=C1c2ccncc2C(=O)N1Cc1cccc(Cl)c1	i	-1.3
COc1cc(CCC(=O)Nc2ncc(C)s2)cc(OC)c1OC	i	-0.21
COc1ccccc1N1CCN(C(CNC(=O)c2ccc3c(c2)OCO3)c2cccnc2)CC1 (stereo unspecified)	i	-1.25
O=C(C1=NN[C@@H]2C(=O)N(c3ccccc3C(F)(F)F)C(=O)[C@H]12)c1cnccn1	i	0.72
CCCC(=O)Nc1ccc(NC(=O)C23CC4CC(CC(C4)C2)C3)cn1	i	0.03
CN(C)N1C(=O)CC(NNC(=O)c2ccncc2)C1=O (stereo unspecified)	i	-1.19
Cc1cccc(N2CCN(C(c3ccc(N(C)C)cc3)c3nnnn3C(C)(C)C)CC2)c1C (stereo unspecified)	-6.02*	-1.42*
COc1ccc(N2CCN(C(=O)CCNS(=O)(=O)c3cc(Br)cnc3N)CC2)cc1	i	0.14
Cc1c(C(=O)NCc2cccnc2)oc2ccc(S(=O)(=O)N3CC(C)CC(C)C3)cc12 (stereo unspecified)	i	1.9
O=C(O)CC(SCC(=O)Nc1ccccc1)C(=O)O (stereo unspecified)	i	0.52
CC(=O)c1c(O)c2cccc3c2n(c1=O)CCC3	i	2.76
Additional compounds:
SMILES	KCNQ2 block	KCNQ2 block baseline
C/C=C(/C)C(=O)Nc1cccc(C2=NOC3(C2)C[C@@H](C(N)=O)N(C(=O)C2(C)CC2)C3)c1 (stereo partly specified)	i	-0.32
CC(C)(C)OC(=O)[C@H](Cc1ccccc1)NC(=O)c1nc[nH]c1C(=O)N1CCc2ccccc2C1	i	-0.14
COc1ccc(SCCc2nnc(-c3ccccc3)o2)cc1	i	0.82
O=C(CO/N=C/c1cccc([N+](=O)[O-])c1)NC1CCCCC1	i	0.25
C/C(=N\NC(=O)COc1ccccc1-c1ccccc1)c1ccccn1	i	0.02
O=C(CNC(=O)c1ccc(Br)cc1)NCC(=O)OCC(=O)c1ccc(F)cc1	i	0.44
Cc1nc(C)n(C(Oc2ccc(Cl)cc2Cl)C(=O)C(C)(C)C)n1 (stereo unspecified)	i	0.76
CCn1c(COc2ccccc2)nnc1SCC(=O)NCc1ccco1	i	0.98
COC(=O)c1sccc1NC(=O)c1cc(OC)cc(OC)c1	i	1.42
O=C(O)c1ccc(CSc2nnc(-c3ccc(Cl)cc3)o2)cc1	i	0.02

A section of the results above, for reference:
SMILES	KCNQ2 block	KCNQ2 block baseline
CN(C)N1C(=O)CC(NNC(=O)c2ccncc2)C1=O (stereo unspecified)	i	-1.19
Cc1cccc(N2CCN(C(c3ccc(N(C)C)cc3)c3nnnn3C(C)(C)C)CC2)c1C (stereo unspecified)	-6.02*	-1.42*

Following part.
SMILES	KCNQ2 block	KCNQ2 block baseline
COc1ccc(-c2ccc([C@H]3[C@@H]4C=CCC[C@@]4(C)C(=O)N3Cc3ccccc3)c(F)c2)cc1	i	1.08
O=C(O)CCCC(=O)Nc1ccccc1C(=O)N1CCOCC1	i	0.96
CC1CCCCC1NC(=O)CO/N=C/c1ccccc1OC(F)F (stereo unspecified)	i	-0.59
Cc1ccc(NC(=O)CN2C(=O)CN(C)C2=O)cc1S(=O)(=O)N1CCCCC1	i	2.35
CCN(CC)CC(=O)Nc1c2c(nc3ccccc13)N(C)CC2	i	0.08
O=C(CCc1ccc(S(=O)(=O)N2CCOCC2)cc1)OCc1nc2ccccc2s1	i	1.14
O=C(COC(=O)c1ccc(Cl)s1)c1cc2ccccc2o1	i	3.42
c1ccc(-c2ccccc2OCCCCN2CCCCCC2)cc1	i	-2.26
Cc1occc1C(=O)NCCCCc1ccccc1	i	0.08
C/C(=N/NC(=O)CNC(=O)c1ccccc1)c1ccc(C)cc1	i	-1.05
CCOC(=O)CSc1nc2ccc(N3CCOCC3)cc2c(=O)n1Cc1ccc2c(c1)OCO2	i	-1.1
CCOC(=O)N1CCN(CCC(=O)Nc2cc(C)ccc2OC)CC1	i	0.15
CCN(CC)S(=O)(=O)c1cccc(NC(=O)CCNC(=O)NC23CC4CC(CC(C4)C2)C3)c1	i	0.02
Cc1ccc(CNC(=O)CCCC(=O)Nc2cc(C)on2)cc1	i	-0.32
Cc1ccc(CN(Cc2cccnc2)C(=O)CN2C(=O)COc3ccccc32)o1	i	-0.96
O=C(NC1Cc2ccccc2C1)c1cc(COc2ccc(F)cc2Cl)on1	i	-1.47
O=C(NCc1ccc(F)cc1F)Nc1cnccc1C(F)(F)F	i	0.06
CCOC(=O)c1cn(CC(=O)Nc2cccc(Cl)c2)nn1	i	0.15
CC(NC(=O)CC1SC(N)=NC1=O)c1ccccc1 (stereo unspecified)	i	0.1
CCCc1c(O)nc(SC2CC(=O)N(c3cc(OC)ccc3OC)C2=O)[nH]c1=O (stereo unspecified)	i	-0.07

A few values from above.
Result for CCCCn1c(N)c(N(CC(C)C)C(=O)CC2CCCC2)c(=O)[nH]c1=O in KCNQ2 block baseline: -0.39
Result for O=C(NCc1ccccc1Cl)c1cnc2ccccc2n1 in KCNQ2 block baseline: -2.03
Result for COc1ccc(CN2CCN(C(C)C(=O)N(C)Cc3cccc(F)c3)CC2)cc1OC (stereo unspecified) in KCNQ2 block baseline: 0.5
Result for CCN(CC)S(=O)(=O)c1cccc(-c2n[nH]c(=S)n2/N=C/c2ccc(OC(F)F)cc2)c1 in KCNQ2 block baseline: 0.59
Result for S=C(NCCc1ccccc1)N/N=C/c1cccs1 in KCNQ2 block baseline: -0.05
Result for CCCn1nc(NC(=O)c2ccco2)c2cc3ccc(C)cc3nc21 in KCNQ2 block baseline: -1.06

Continuation:
SMILES	KCNQ2 block	KCNQ2 block baseline
O=C1N/C(=C/c2ccc(N3CCOCC3)o2)C(=O)N1c1cccc(Cl)c1	i	6.06
COc1ccc(CCNS(=O)(=O)c2cc3c4c(c2)CCN4C(=O)CC3)cc1	i	1.24
COc1ccc(Cl)cc1C(=O)Nc1ccc2c(c1)OCCO2	i	-1.05
COc1ccccc1OCCSc1ncnc2nc[nH]c12	i	-0.13
COC(=O)C(C(=O)OC)c1ccc(NC(=O)c2cccc(Cl)c2)cc1	i	1.42
O=C(NC1CCCCC1)N(Cc1cc2cc3c(cc2[nH]c1=O)OCCO3)CC1CCCO1 (stereo unspecified)	i	-0.06
O=C(Nc1ccccc1-c1ccccc1)c1cccc([N+](=O)[O-])c1	i	1.59
O=C1CC(c2ccccc2)CC(O)=C1C=Nc1ccc(O)cc1 (stereo unspecified)	i	-3.15
COc1ccc(NC(=O)c2ccc(CN3CCN(c4ccccc4)CC3)cc2)cc1	i	0.58
CCc1ccc(NC(=S)NCC2CCCN2CC)cc1 (stereo unspecified)	i	-1.54
N#C/C(=C/c1ccc(N2CCOCC2)o1)C(=O)NC1CCCCC1	i	11.5
Cn1c(=O)c2c(nc(CN3CCN(C(c4ccccc4)c4ccccc4)CC3)n2CCCO)n(C)c1=O	i	-0.55
CCCC(=O)c1c(C)c2ccccc2n1C	i	-0.15
COC(=O)CSc1nc2cc(C)cc(C)c2cc1C#N	i	0.02
c1ccc2c(-c3nnc4n3CCCCC4)cc(-c3ccncc3)nc2c1	i	1.19
CCCCc1ccc(NC(=O)c2ccc(N(C)S(C)(=O)=O)cc2)cc1	i	-0.34
COc1n[nH]c2nncnc12	i	-0.76
O=C(O)c1ccc(CNC(=O)c2ccc3c(c2)C(=O)N(Cc2cccnc2)C3=O)cc1	i	0.75
O=C(c1ccc(S(=O)(=O)c2ccccc2Cl)c([N+](=O)[O-])c1)N1CCN(Cc2ccccc2)CC1	i	0.59
CN(c1ccccc1C(=O)Nc1cccc(Br)c1)S(=O)(=O)c1ccccc1	-6.7*	0.51*
COc1ccc(-c2nnn(CC(=O)N(CCCO)C(C(=O)NC3CCCC3)c3ccncc3)n2)cc1 (stereo unspecified)	i	1.81
COc1ccc(C(c2c(C)[nH]n(-c3ccccc3)c2=O)c2c(C)[nH]n(-c3ccccc3)c2=O)cc1OC	i	0.12
O=C(Nc1ccc2cn[nH]c2c1)c1ccc(Cl)c(S(=O)(=O)N2CCOCC2)c1	i	-0.44
O=C1CC(/C=C/c2ccncc2)=Nc2ccccc2N1	i	-0.08
O=C(NCCN1CCOCC1)c1ccc(NS(=O)(=O)c2cccc([N+](=O)[O-])c2)cc1	i	2.01
CCOC(=O)c1sc(N2C(=O)C(O)=C(C(=O)c3ccco3)C2c2cccc(Cl)c2)nc1C (stereo unspecified)	i	-0.68
Cc1ccc(S(=O)(=O)N2CCC[C@H]2C(=O)OC(C)C(=O)Nc2ncc(Cl)cc2Cl)cc1 (stereo partly specified)	i	-0.18
COc1ccccc1NC(=O)CSc1ncn[nH]1	i	-0.98
Cc1cccc(C2CC(c3ccc(Br)cc3)Nc3nc(N)nn32)c1 (stereo unspecified)	i	-0.95
CN(/N=C/Cc1nnnn1-c1ccc(Cl)cc1)c1ccccc1	i	-0.75
C/C(=N\NC(=O)c1ccc(Cl)c(Cl)c1)c1ccc(Br)s1	i	0.34
CC1CC(C)CN(C(=O)C(NS(=O)(=O)c2ccc(Br)s2)c2ccccc2)C1 (stereo unspecified)	i	-0.77
Cn1c(=O)c2c(nc(CN3CCc4ccccc4C3)n2Cc2ccccc2)n(C)c1=O	i	1.09
O=C(Nc1ccccc1)Nc1cccc(C(F)(F)F)c1	i	1.2
CCOC(=O)N1CCN(C(=O)c2c(O)c3cccc4c3n(c2=O)CC4)CC1	i	0.61
CCOc1ccc(C(C(=O)NC2CCCCC2)N(C(=O)c2csnn2)C2CC2)cc1 (stereo unspecified)	i	2.12
O=C(Nc1ccccc1)OC1CCC2CC1CCC2OC(=O)Nc1ccccc1 (stereo unspecified)	i	-0.52
O=C(C1CCCCC1)N1CCN(c2ccnc3cc(Cl)ccc23)CC1	i	-1.07
